# Screening data as filed in PubChem.
# Mtb hypoxia rep: reduces hypoxia-regulated biosensor signal in M. tuberculosis; M. tuberculosis hypoxia-regulated fluorescent reporter, fluorescence; fluorescence inhibition, % (test concentration not listed); 300,000 compounds, 0.1% hits; AID 1159583;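 active = 35 to 45% if threefold the growth effect, above 45% if 1.5-fold the growth effect; inactive = the rest, general growth blockers included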;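 also: wells of about 50 µL received 100 nL stock; 0% = vehicle wells and 100% = reference inhibitor wells; whole bacteria with a GFP reporter of the hypoxia response; strong numbers were not always called active; many hits fall short of the cut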
# BJeLR viability: BJeLR cell viability loss | BJeLR (HRASV12) viability, CellTiter-Glo ATP luminescence, 48 h; reference of the scale not given here | inhibition, % (concentration not given with the values) | 300,000 compounds, 0.17% hits;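 active = replicate mean above 50%; inconclusive = above 50% but judged a plate artefact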;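 also: 50 nL library stock added to about 25 µL; numbers are from one replicate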
# RN4220 kill: kills Staphylococcus aureus RN4220 | S. aureus RN4220 growth, OD600, 16 h | inhibition, % (test concentration not listed) | 330,000 compounds, 0.33% hits;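 active = z-score of -3 or lower and OD600 up to 0.18 on both plates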;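 also: plate controls were untreated cells for no effect and reference antibiotic for full effect; stock transfer was 100 nL into about 80 µL; one replicate is shown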
# Sa ugtP lethal: compounds lethal to S. aureus RN4220 ugtP deletion mutant; OD600 growth, 16 h; some inactives read as strong as hits; growth inhibition, % (concentration not given with the values); 330,000 compounds, 0.54% hits; AID 1259309;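 active = z-score under -3 and OD600 up to 0.15 on both plates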;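 also: plate controls were untreated wells for no effect and antibiotic for full effect; wells of about 80 µL received 100 nL stock; the first replicate is given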
# PrP UTR inh: suppresses PrP 5' UTR mRNA reporter expression | cell-based PrP 5' UTR mRNA reporter, plate reader | inhibition, % (no concentration beside the values) | 340,000 compounds, 0.35% hits;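 active = every replicate at 50% or more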;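 also: 0 = median of the neutral control wells; tested in H4 reporter cells; numbers are from one replicate; inactives centre near -14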
# Bead autofluor: compound fluorescence in toxin protease inhibitor counterscreen | compound autofluorescence counterscreen, microsphere flow cytometry; hits give high values | 360,000 compounds, 3.1% hits | fluorescence intensity (test concentration not listed);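 active = at least 3 SD above the mean of all compounds, about 16000 in these data; inconclusive = too few beads counted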;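 also: 100 nL of 1 mM stock went into each well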
# Mtb hypoxia rep growth: second read-out of Mtb hypoxia rep, no call of its own (marks repeat the call); growth inhibition, %; measured here: M. tuberculosis growth (absorbance);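 0% = vehicle and 100% = reference antibiotic; read after six days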
# Starred values were filed as active, the others as inactive; ? = inconclusive; . = not tested or not shown. Random draw from the library (roughly 4% active in at least one column).
Structure	Mtb hypoxia rep growth	RN4220 kill	PrP UTR inh	Sa ugtP lethal	BJeLR viability	Bead autofluor	Mtb hypoxia rep
O=C(COC(=O)c1cccc(S(=O)(=O)NCc2ccccc2)c1)NC1CC1	-6	8.2	.	17	.	.	3
O=C(CCS(=O)(=O)c1ccc(Br)cc1)N1CCN(c2ccc(Cl)cc2)CC1	8	0.5	-16	-4	-4	20319*	5
Cc1ccc(C2=NNC3(CCOC(C)(C)C3)S2)cc1 (stereo not given)	9	1.0	-11	0	3	2470	12
Cc1cc(N2CCCC2)c(F)cc1/C=C\[N+](=O)[O-]	9	16	-10	0	-2	9071	12
O=C(Oc1c(-c2ccccc2)c(=O)n2c3c(cccc13)CC2)c1ccco1	10	4.6	-43	12	5	3100	4
CCOCCCNC(=S)N1CCN(CC)CC1	-1	3.6	-18	7	5	2390	-4
COc1ccc(S(=O)(=O)N2CCCC(C(=O)NC3CC3)C2)cc1OC (stereo not given)	3	2.7	-23	8	-15	4838	-1
Cc1ccc(S(=O)(=O)NCCCN2CCOCC2)c(C)c1	11	4.0	-21	7	15	3344	1
Cc1cc(C(=O)CSc2nnc(N)s2)c(C)n1-c1c(C)n(C)n(-c2ccccc2)c1=O	.	-0.9	-17	11	-4	4638	.
C=COCCNC(=S)Nc1cccc(Cl)c1	8	6.6	-20	-6	0	4856	8
Cc1ccc(CNC(=O)CN2C(=O)NC(C)(c3cccc(Br)c3)C2=O)cc1 (stereo not given)	1	3.2	-1	-6	-10	3964	-7
COc1cccc(CC(NC(C)=O)C(=O)NC2CCN(c3c(Cc4ccccc4)c(C)nc4ncnn34)CC2)c1 (stereo not given)	6	-0.7	-35	0	-8	10530	-11
O=C(CC1SC(N2CCCC2)=NC1=O)Nc1ccc(C(=O)NCCOc2ccccc2F)cc1 (stereo not given)	5	5.8	-17	10	.	?	10
O=[N+]([O-])c1cc(/C=N/N2CCCCC2)ccc1Cl	.	.	-49	.	-6	5896	.
CC(C)c1c(C(=O)N/N=C/c2ccc(C(F)(F)F)cc2)nnn1-c1nonc1N	.	.	-20	.	5	4228	.
O=C(C1=CC=CN2CCS(=O)(=O)N=C12)N1CCN(c2cccc(Cl)c2)CC1	1	-0.9	-15	4	.	3478	5
Cn1nnnc1SCC(=O)Nc1c(Cl)cccc1Cl	.	1.3	-16	3	4	4514	.
COc1cccc(NC(=O)c2ccccc2)c1	-1	7.3	-37	-1	.	3943	14
Cc1ccccc1CC1(CO)CCCN(C(=O)Cc2c(F)ccc(F)c2F)C1 (stereo not given)	4	1.6	-53	0	-5	3941	-12
O=P(CCC(F)(F)F)(CCC(F)(F)F)CCC(F)(F)F	.	1.6	-14	0	-5	2743	.
O=C(O)c1cccc(NN=C2c3ccccc3-c3ccccc32)c1	9	15	-24	38	-1	3858	-9
O=C(Nc1ccc(-c2noc(-c3cccs3)n2)cc1)c1cccnc1	.	-5.8	-76	7	4	2734	.
Cc1noc(/C=C/c2ccco2)c1S(=O)(=O)N1CCC(C(=O)Nc2ccc(Cl)cn2)CC1	3	-6.7	-23	-24	-2	2151	-16
COc1ccc(-c2coc3cc(OC)cc(O)c3c2=O)cc1	.	.	-134	.	-9	3801	.
CCc1cc(=O)oc2cc(C)cc(OCC(=O)NCc3ccccn3)c12	-4	4.9	1	1	-4	5383	10
O=C(c1ccccc1)N1N=C(C(F)(F)F)CC1(O)c1ccc(F)cc1 (stereo not given)	-3	7.3	-21	8	8	3913	0
COc1cccc(CN(C)C(=O)c2ccc3c(=O)n4c(nc3c2)CCC4)c1OC	7	4.4	-24	6	5	5611	9
COc1ccccc1CN(CC(=O)NCc1ccco1)C(=O)CNS(=O)(=O)c1ccc(C)cc1	.	-3.1	2	-10	-4	3636	.
O=C(NC1CCCCCC1)C1CCN(S(=O)(=O)c2cccc3cccnc23)CC1	.	.	-33	.	0	5694	.
CCc1ccc(C=NNC(=O)Cc2cccn2C)cc1	2	3.3	.	8	.	.	13
Cc1ccc(C)c(Cn2c(=O)c3c(nc4n3CCN4Cc3ccco3)n(C)c2=O)c1	-2	0.0	-10	4	6	6592	2
CCOC(=O)c1ccc(S(=O)(=O)N2CCN(c3ccccn3)CC2)cc1	9	3.6	7	1	-3	5687	-3
Cc1ccc(-c2csc(NC(=O)c3cccc(N4C(=O)CCC4=O)c3)n2)o1	3	3.8	27	9	6	4728	-3
Cc1cccc(NC(=O)CSc2nc3nc4c(cc3c(=O)n2-c2ccccc2)CCCC4)c1	4	-7.6	-9	-1	3	7374	7
NC(=O)Nn1c(CCC(=O)O)ccc1-c1ccc(Br)cc1	2	1.5	-31	2	7	4156	3
CC(C)c1ccc(OCc2nc(-c3ccccn3)no2)c(Br)c1	16	31	-96	34	-2	2347	3
CCc1cccc2c(C#N)cn(CC(=O)NCc3ccco3)c12	.	0.8	-3	8	4	4859	.
O=c1[nH]c(O)c(N=Nc2cc(C(F)(F)F)ccc2Cl)c(=O)[nH]1	4	8.0	-9	8	-7	4071	21
COc1cc(C2C(C#N)=C(N)OC3=C2C(=O)CCC3)cc2c1OCO2 (stereo not given)	8	-1.6	-8	12	3	3064	10
COc1ccc2ccccc2c1CNCCCN1CCOCC1	15	6.9	-15	3	.	4257	0
Cn1c(=O)c2cc(S(=O)(=O)Nc3ccc4c(c3)OCO4)ccc2n(C)c1=O	2	4.9	-12	-8	0	8510	5
CC(=O)C(=NNc1ccccc1)Sc1nncn1C	3	3.2	.	5	.	.	5
O=C(O)CCn1ccc2cc(S(=O)(=O)N3CCCCCC3)ccc21	0	5.1	-5	6	7	?	1
COc1ccc(Cl)cc1S(=O)(=O)n1ccnc1C(C)C	2	0.6	-29	-12	1	5392	-1
Cc1ccccc1C(=NCCCN(C)C)c1ccccc1C	4	4.8	-12	4	1	2483	6
Cc1nc(Nc2ccc(Cl)cc2)c2oc3ccccc3c2n1	-2	12	-17	-24	-3	4058	0
Cc1ccc(N(C(=O)CNC(=O)c2ccco2)C(C(=O)NC2CCCC2)c2cccnc2)cc1F (stereo not given)	0	1.2	-12	3	-13	5392	-9
O=C(c1ccc(Br)s1)N1CCN(Cc2ccc3c(c2)OCO3)CC1	14	-5.4	-8	12	4	9963	24
Nc1nnc(Cc2cccc(Br)c2)s1	2	1.3	-22	0	-2	4297	12
CCOc1ccc(CCNC(=O)c2ccc3c(=O)n4c(nc3c2)CCCCC4)cc1	7	-0.7	-10	-4	2	5509	1
CN1CCN(c2ccc(NC(=O)c3ccc(-c4ccc(Cl)cc4)o3)cc2)CC1	1	-4.1	-17	17	6	5881	5
CCCc1cnc(N2CCN(C(=S)NC)CC2)nc1	-6	0.6	-55	-3	-6	?	-10
CCOc1cccc(-c2c(C(=O)NN=Cc3ccc(C)o3)nnn2-c2nonc2N)c1	2	4.5	.	0	.	.	12
Cc1ccc(-c2csc(=Nc3cccnc3)n2CCCN2CCCC2=O)cc1C	0	2.5	-4	-1	-2	1929	11
C[C@H](CO)N1C[C@H](C)[C@@H](CN(C)C(=O)Nc2ccc3c(c2)OCO3)Oc2ccc(NS(=O)(=O)c3cn(C)cn3)cc2C1=O	7	-14	-9	-7	.	3470	0
COc1ccc(-c2cc(C(F)(F)F)n3nc(N)nc3n2)cc1	2	1.8	-7	-11	12	23917*	-9
COc1ccccc1C(=O)NCC(=O)NCC1(N2CCCCC2)CCCCC1	.	.	-12	.	-8	?	.
Cc1ccc(NC(=S)Nc2cc(C)on2)cc1	6	4.2	.	0	1	.	12
CSc1nc2ccc(S(=O)(=O)N3CCCCC3)cc2s1	3	4.2	-16	5	-5	8353	8
O=C(O)c1nccnc1C(=O)Nc1ccc(Cl)cn1	2	-0.1	-26	-1	-5	3081	10

# The list goes on.
Structure	Mtb hypoxia rep growth	RN4220 kill	PrP UTR inh	Sa ugtP lethal	BJeLR viability	Bead autofluor	Mtb hypoxia rep
O=C(COC(=O)/C=C/c1ccc(Br)o1)NC1CCCCC1	-3	5.9	-9	1	.	6615	5
O=C(COC(=O)CSc1ccc(Br)cc1)NCc1ccco1	0	4.4	-19	8	3	5627	9
CC1CCCCN1C(=O)c1cc(Cl)ccc1[N+](=O)[O-] (stereo not given)	10	3.4	-6	2	11	5307	15
CCC(CC)C(=O)N(c1ccc(F)cc1)C1C=CS(=O)(=O)C1 (stereo not given)	5	5.9	-26	9	2	8924	-3
O=C(CO/N=C/c1ccc(OC(F)F)cc1)NC1CCCCCC1	.	.	-77	.	-18	3460	.
Cn1c(NNC(=O)/C=C/c2ccc3c(c2)OCO3)cc(=O)n(C)c1=O	-1	-0.8	-11	1	8	3853	8
CC(C)CC(NC(=O)/C(=C/c1ccco1)NC(=O)c1ccc(Br)o1)C(=O)O (stereo not given)	-7	-0.2	-16	2	9	3249	2
Cc1nn2c(NCCN(C)C)c3c(nc2c1-c1ccccc1)CCC3	10	-0.1	2	4	-2	4062	4
Cn1c(=O)c2ncn(CC(=O)NCCOc3ccccc3)c2n(C)c1=O	8	5.2	-19	-1	5	10311	3
COC(=O)c1ccc(NC(=O)CSc2nnc(-c3ccncc3)n2N)cc1	2	1.3	13	5	-1	20637*	0
Cc1cc[n+](-c2[nH]c(=O)sc2C=NNC([S-])=Nc2ccccc2)cc1C	14	4.7	.	-3	.	.	17
Cc1ccc(CSc2nnc3c(n2)OC2(Nc4ccccc4-3)C(=O)Nc3ccc(F)cc32)cc1 (stereo not given)	10	7.7	-27	-3	-2	12808	12

# Quoted at random: 4 compounds from above, in no set order.
Structure	Mtb hypoxia rep growth	RN4220 kill	PrP UTR inh	Sa ugtP lethal	BJeLR viability	Bead autofluor	Mtb hypoxia rep
Cn1c(=O)c2ncn(CC(=O)NCCOc3ccccc3)c2n(C)c1=O	8	5.2	-19	-1	5	10311	3
O=C(CO/N=C/c1ccc(OC(F)F)cc1)NC1CCCCCC1	.	.	-77	.	-18	3460	.
Cc1cc[n+](-c2[nH]c(=O)sc2C=NNC([S-])=Nc2ccccc2)cc1C	14	4.7	.	-3	.	.	17
CC(C)CC(NC(=O)/C(=C/c1ccco1)NC(=O)c1ccc(Br)o1)C(=O)O (stereo not given)	-7	-0.2	-16	2	9	3249	2

# (list continues)
Structure	Mtb hypoxia rep growth	RN4220 kill	PrP UTR inh	Sa ugtP lethal	BJeLR viability	Bead autofluor	Mtb hypoxia rep
O=C(CC1SC(=NN=Cc2ccco2)NC1=O)Nc1cccc(Cl)c1Cl (stereo not given)	-3	5.9	.	-1	.	.	0
Cc1ccc(NC(=O)CSc2cn[nH]n2)cc1	13	3.6	-24	9	5	3461	9
Cc1cccc(N/C(=N/S(=O)(=O)c2ccccc2)c2ccccc2)n1	.	.	-19	.	9	?	.
Cc1ccccc1NC(=S)NC(=O)/C=C/c1ccco1	5	1.4	-3	49	-13	3605	8
CCOC(=O)CNC(=O)c1cn(C)c(=O)c2cc(OC)c(OC)cc12	1	-1.1	-7	-1	6	4216	4
COc1ccc2c(c1)OC(O)(C(F)(F)C(F)F)CC2=O (stereo not given)	6	99*	-21	99*	-5	7132	3
CN(c1ccccc1)S(=O)(=O)c1ccc(Cl)c(C(=O)Nc2ccncc2)c1	2	8.3	-14	3	.	3405	2
COc1ccc(-c2noc(C3CCCN(C(=O)c4ccc(F)cc4)C3)n2)cc1 (stereo not given)	-7	-0.2	-31	3	-8	4083	0
CCN(C(=O)CN1CCCCC1C)c1c(N)n(Cc2ccccc2)c(=O)[nH]c1=O (stereo not given)	10	2.5	-17	3	.	2837	26
CCCC(C(=O)Nc1cc(S(=O)(=O)N2CCOCC2)ccc1OC)c1ccccc1 (stereo not given)	2	-0.2	-17	5	-1	5078	1
COc1ccccc1N1CCN(C2CCCN(C(=O)c3ccsc3)C2)CC1 (stereo not given)	3	-0.7	-19	-1	-19	?	-2
O=C(NCC(=O)N(c1ccc2c(c1)OCCO2)C(C(=O)NC1CCCC1)c1ccco1)c1ccco1 (stereo not given)	4	-1.8	-4	-2	2	2932	-6
CCn1c(C)nc2cc(C(=O)N/N=C/c3ccc(O)c(O)c3O)ccc21	.	.	-16	.	-4	2003	.
